From PubChem BioAssay
HIV TAR-Tat: HIV-1 TAR-Tat binding disruption | HIV-1 TAR RNA, Tat peptide displacement FRET; stronger effect = higher value | AID 1259389 | 100,000 tested, 0.6% active | z-score (concentration not given with the values);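 further: score is relative to mean and SD of negative controls; some compounds called inactive have numbers as strong as hits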
CDC25B CDK2 inh: human CDC25B-CDK2/CyclinA binding inhibition; P30305+P24941; HTRF CDC25B-CDK2/CyclinA binding, anti-His/anti-Flag; stronger effect = higher value; z-score (test concentration not listed); 94,000 tested, 0.72% active;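 further: score is relative to mean and SD of negative controls; strong numbers were not always called active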
Active calls of the source: *; . = not tested or not shown.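 How the source made its calls: active means z-score from 3 up in half or more of its runs; inactive means the rest.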

SMILES	HIV TAR-Tat	CDC25B CDK2 inh
Cc1ccc2c(c1)-c1c(cnn1CC(=O)NCC1CCCO1)CO2 (stereo not drawn)	0.42	-0.59
Cn1c(=O)oc2cc(S(=O)(=O)N3CCC(C(=O)NCC4COc5ccccc5O4)CC3)ccc21 (stereo not drawn)	.	-1.6
CCCOC(=O)C1=C(C)NC2=C(C(=O)CC(c3ccccc3)C2)C1c1ccc(O)c(OCC)c1 (stereo not drawn)	1.4	-0.15
O=C(Cn1ccc2cc(S(=O)(=O)N3CCCC3)ccc21)NCCc1ccco1	0.55	.
Cc1cc(C)c(Cn2c3ccccc3c3cnn(CC(=O)NC(C)C)c(=O)c32)c(C)c1	0.9	-0.06
CC1(C)CC(=O)C2=C(C1)Nc1n[nH]c(-c3ccccc3)c1C2c1ccccc1 (stereo not drawn)	-0.1	.
COc1ccccc1Cn1cc(C(=O)c2ccccc2)c(=O)c2ccccc21	0.63	-0.56
CCNc1nc(Nc2ccc(Cl)cc2C)c2cnn(C)c2n1	0.26	.
Cc1cc2nc(COC(=O)c3ccc4c(c3)OCO4)cc(=O)n2o1	-0.84	.
CC1(C)CC(=O)C2=C(C1)Nc1ccccc1N(CC(=O)N1CCOCC1)C2c1cccs1 (stereo not drawn)	1.2	.
CN1CCOc2cc(S(=O)(=O)NCc3csc(-c4cccs4)n3)ccc21	.	-2.7
Cc1nc(N2CCN(Cc3ccccc3)CC2)nc2c1C(=O)CC(/C=C/c1ccccc1)C2 (stereo not drawn)	0.64	-0.43
Cc1nc2ncnn2c(C)c1Cc1ccccc1Cl	.	-1.1
Cc1ccc(-c2ccc(=O)[nH]n2)cc1S(=O)(=O)N(Cc1ccccc1)C(C)C	-0.58	-0.97
COc1cc(OC)cc(C(=O)Nc2sc3c(c2C(N)=O)CCCC3)c1	.	-0.63
O=C(NCC1CCCO1)c1ccc2c(c1)C1C3CCC(C3)C1C(c1ccccc1)N2 (stereo not drawn)	.	-0.51
C=CCn1c(=O)c2ccc(C(=O)NCc3ccc4c(c3)OCO4)cc2n(Cc2cccc(F)c2)c1=O	2.8	-2.6
COc1ccc(Cc2nc(-c3ccc(C)cc3)no2)cc1	1.7	0
O=C(CN1C(=O)c2cccnc2Oc2ccccc21)N1CCN(C2CCCCC2)CC1	1.1	.
COc1ccc(C2CN=NC23CSc2ccccc2C3=O)cc1 (stereo not drawn)	.	-2.6
COc1ccccc1-n1cc(-c2ccccc2)[nH]c1=S	.	-1.2
COc1ccc(C2NC(=O)c3n[nH]c(-c4ccco4)c32)cc1 (stereo not drawn)	-3.4	1.9
CC(C)CNC(=O)NC1(C(F)(F)F)Oc2ccccc2O1	.	-0.82
CC(C)CC(NS(=O)(=O)c1ccc2c(c1)oc(=O)n2C)C(=O)N1CCC(N2CCCCC2)CC1 (stereo not drawn)	.	0.17
COc1ccc(OC)c(NC(=O)c2nccnc2C(=O)O)c1	1.5	-0.85
(listing goes on)
SMILES	HIV TAR-Tat	CDC25B CDK2 inh
Cc1nnc2c(N3CCCC(C)C3)nc3ccccc3n12 (stereo not drawn)	.	-0.89
O=C(NCC1COc2ccccc2O1)C1COc2ccccc2O1 (stereo not drawn)	0.67	0.28
CCn1c(C(=O)N2CCC(C(=O)O)CC2)cc2sccc21	.	-0.64
Cc1ccc(N(C)NC=C(C#N)C#N)nn1	.	0.39
CNC(=O)c1c(NC(=O)c2cccc(Cl)c2)sc2c1CCC2	-3.1	.
CSc1cccc(NC(=O)c2cnc3sc4c(n3c2=O)CCCC4)c1	0.74	.
COc1ccc(OC)c(NC(=O)N2CCC(n3cnc4ccccc4c3=O)CC2)c1	0.38	.
CCOC(=O)C1CCCN(C(=O)Cn2ncn3c(cc4sc(CC)cc43)c2=O)C1 (stereo not drawn)	-0.56	-1.8
O=C(Nc1ccc2c(c1)OCCO2)C1CCCN(c2nnc(-n3cccc3)s2)C1 (stereo not drawn)	1.3	.
CCc1ccc2c(c1)c(=O)c(S(=O)(=O)c1ccc(Cl)cc1)cn2C	1.5	-0.4
COc1ccc(OC)c(CNS(=O)(=O)c2cc(-c3cnc(C)o3)ccc2C)c1	1.3	.
CCc1cc2c(N3CCC(C(=O)N4CCN(C)CC4)CC3)ncnc2s1	0.51	.
Cc1nc2sc(C(c3cccs3)N3CCN(CCO)CC3)c(O)n2n1 (stereo not drawn)	.	-1.6
CCC(=O)N1CCc2cc(S(=O)(=O)CCC(=O)N3CCOCC3)ccc21	.	1.1
CC(C)(C)c1ccc(-c2cc(=O)[nH]c(=O)o2)cc1	.	-2.2
CC1CS(=O)(=O)N(c2ccc(S(=O)(=O)N3CCN(c4ccccc4)CC3)cc2)C1=O (stereo not drawn)	-0.9	-2.1
COc1ccc(Nc2nn3c(=O)c4ccccc4nc3s2)cc1	7.2	.
CCN(CC(O)Cn1c2ccccc2c2ccccc21)S(=O)(=O)c1ccc(F)cc1 (stereo not drawn)	.	-0.03
COc1ccc(C2Nc3ccccc3-c3cc(C)nn32)cc1OC (stereo not drawn)	0.67	0.27
Cc1ccc(S(=O)(=O)N2CCN(c3nc4ccccc4nc3-n3nc(C)cc3C)CC2)c(C)c1	0.71	-0.67
O=C(NCC(c1cccs1)S(=O)(=O)c1cccs1)C1CC1 (stereo not drawn)	2.2	.
Cc1onc(-c2ccccc2)c1C(=O)NNC(=O)c1ccc(-n2c(C)ccc2C)cc1	.	-1.8
CC(C)CCNc1nc2c(S(=O)(=O)c3ccccc3)nnn2c2ccccc12	-0.3	-1.6
Cc1ccc(-c2cnc(C3CC3)o2)cc1S(=O)(=O)N1CCN(c2ccc(F)cc2)CC1	1.3	.
Cc1sc2nc(CCCCCN3C(=O)c4cccc5cccc(c45)C3=O)n(CCO)c(=O)c2c1C	.	-0.63
Further records follow.
SMILES	HIV TAR-Tat	CDC25B CDK2 inh
Cn1cc(NC(=O)Nc2ccc(F)cc2F)c2ccccc2c1=O	0.62	.
Fc1cccc(-c2nnc(Cc3ccc4c(c3)OCO4)o2)c1	1.2	-1.8
O=C(CCCC1=NS(=O)(=O)c2ccccc2N1)N1CCN(c2ccc(Cl)cc2)CC1	.	-0.74
COCCNC(=O)c1cc(S(=O)(=O)N2CCCCC2)c[nH]1	3	.
CC(C)(C)c1ccc(C(=O)NNC(=O)c2ccc([N+](=O)[O-])cc2)cc1	.	-1.3
CC(=O)N1CCN(c2csc3ccc(Br)cc3c2=O)CC1	0.44	.
CC(=O)N1c2ccc(S(=O)(=O)NC(C(=O)NCc3ccccn3)C(C)C)cc2CC1C (stereo not drawn)	0.01	.
O=c1nc(N2CCCCC2)ccn1C(N=C(c1ccccc1)N1CCCCC1)=C(Cl)Cl	.	-2.1
Cc1ccc(CNC(=O)CN(C)S(=O)(=O)c2ccc3[nH]c(=O)ccc3c2)o1	0.29	.
CCC(C)NS(=O)(=O)c1ccc(-c2cnc(C)o2)cc1 (stereo not drawn)	1	.
O=c1c2c(-c3ccccc3)ccnc2[nH]n1-c1ccccc1	0.43	-0.82
Cc1ccc(S(=O)(=O)[C@H]2CS(=O)(=O)C[C@@H]2NCCC2=CCCCC2)cc1	-2.7	-1.7
COc1ccc(C2C(C#N)=C(N)Oc3cc(O)ccc32)cc1C (stereo not drawn)	2.1	-1.1
CCOC(=O)C1CCN(c2cc(NCC(=O)O)c3c4c(onc24)-c2ccccc2C3=O)CC1	-5.8	5.9*
O=C(Nc1ncc(Cc2ccccc2F)s1)C1=Cc2cc(Cl)ccc2OC=C1	-1.3	-1.1
COc1cc2nc(NCCCN3CCCCC3)n3nc(-c4cccnc4)nc3c2cc1OC	.	-0.65
CN1C(=O)C(Cc2nc3ccccc3c(=O)n2C)c2ccccc21 (stereo not drawn)	-1	-1.5
CCCOc1cc(OCCC)cc(C(=O)Nc2ccc(C)cc2[N+](=O)[O-])c1	.	-2.2
O=C(Nc1cccc(-c2noc(C3CC3)n2)c1)C1CC(=O)N(C2CCCC2)C1 (stereo not drawn)	0.82	.
COc1ccc(/C=C/c2ccncc2)cc1	.	-0.4
Cc1nnc(SCCn2c(N3CCN(c4ccccc4)CC3)nc3c2c(=O)n(C)c(=O)n3C)s1	.	-0.19
COC(=O)c1ccc(/C=[N+](/[O-])C2(C)CCCCC2=O)cc1 (stereo not drawn)	.	-1.6
CCOC(=O)C1=C(C)Nc2ncnn2C1c1ccc(O)cc1 (stereo not drawn)	0.21	-1.2
COc1cc(OC)c(C2=NN(C(C)=O)C(c3ccccc3)O2)cc1Br (stereo not drawn)	0.69	.
NNC(=O)C(Cc1cnc[nH]1)NC(=O)OCc1ccccc1 (stereo not drawn)	.	-0.6

Whole records as entered above. Order of screens: HIV TAR-Tat	CDC25B CDK2 inh
CCCOc1cc(OCCC)cc(C(=O)Nc2ccc(C)cc2[N+](=O)[O-])c1 is listed with .	-2.2
Cc1nc2ncnn2c(C)c1Cc1ccccc1Cl is listed with .	-1.1
COc1ccc(OC)c(NC(=O)N2CCC(n3cnc4ccccc4c3=O)CC2)c1 is listed with 0.38	.
O=C(NCC(c1cccs1)S(=O)(=O)c1cccs1)C1CC1 (stereo not drawn) is listed with 2.2	.
Cn1cc(NC(=O)Nc2ccc(F)cc2F)c2ccccc2c1=O is listed with 0.62	.

Other results follow:
SMILES	HIV TAR-Tat	CDC25B CDK2 inh
CCCCC(=O)CCn1[nH]c(=O)c2ccccc2c1=O	.	-1.3
CC(C)Oc1ccc(C2Nc3ccccc3-n3cc4c(=O)n(C)c(=O)n(C)c4c32)cc1 (stereo not drawn)	1.7	0.56
O=C(Cn1ncc2c1-c1ccccc1OC2)N1CCN(Cc2ccc3c(c2)OCO3)CC1	-0.37	0.14
CCC(=O)Nc1ccc(Sc2nc3ccccc3n3nnnc23)cc1	0.52	-1.2
CCn1c(C(=O)N2CCC(C(=O)N3CCCCCC3)CC2)cc2sccc21	.	-0.58
CC1=C(C(=O)OCCc2ccccc2)C(c2ccsc2)C2=C(CC(C)(C)CC2=O)N1 (stereo not drawn)	1.8	-3
CCCc1nn2cc(-c3ccc(Cl)cc3)nc2s1	0.47	1.2
O=C(N/N=C/c1ccc2ccccc2c1O)c1cc(-c2cccc([N+](=O)[O-])c2)n[nH]1	1.6	.
CCCCNC(=O)C1CCC(Cn2c(=O)c3sccc3n(CC(N)=O)c2=O)CC1 (stereo not drawn)	-0.65	.
COc1ccccc1-c1cc(C(F)F)n2ncc(C(=O)N3CCCC3c3cccc(F)c3)c2n1 (stereo not drawn)	0.7	-1.4
Cc1ccccc1SCc1cc(=O)n2c3c(sc2n1)CCCC3	1.1	.
CC(C)OCCCNC(=O)C1CCCN(c2nnc(-n3cccc3)s2)C1 (stereo not drawn)	-0.15	0.11
O=c1[nH]c(=O)n(C2C[C@@H](O)[C@@H](CO)O2)cc1F (stereo partly drawn)	2.2	.
CSc1ccc(C(c2oc3ccccc3c2NC(=O)c2cccs2)N2CCOCC2)cc1 (stereo not drawn)	-0.34	0.38
CN(CCNC(=O)Nc1cn(C)c(=O)c2ccccc12)C1CCCCC1	-2.4	.
O=C(Nc1ccccc1N1CCOCC1)C1CCN(c2nccc(C(F)(F)F)n2)CC1	.	-1
O=C(Cn1c(=O)n(-c2cc(F)ccc2F)c(=O)c2sccc21)N1CCCC1	.	0.95
COc1ccc(-c2oc3cc(O[C@H]4O[C@H](CO)[C@@H](O)[C@H](O)[C@H]4O)c(OC)c(O)c3c(=O)c2OC)cc1O	2.3	.
O=C(CS(=O)(=O)c1cccc2nsnc12)NCc1ccco1	0.09	.
CSc1nnc2c(n1)OC(c1cccc(O)c1Cl)Nc1ccccc1-2 (stereo not drawn)	1	-0.57
CC1(C)C(=O)N(CC(=O)Nc2nccs2)c2ccc(S(=O)(=O)N3CCCC3)cc21	-0.49	.
CCCn1c(=O)sc2cc(S(=O)(=O)N3CCN(C(=O)c4sc(C)nc4C)CC3)ccc21	-0.94	.
CC1CCC(Nc2c(-c3cccs3)nc3c(C#N)c[nH]n23)CC1 (stereo not drawn)	-6.7	1
CCOC(=O)C1=C(C)NC2=C(C(=O)CC(c3ccccc3)C2)C1c1ccncc1 (stereo not drawn)	0.35	-0.84
COc1ccc(OC)c(S(=O)(=O)Nc2cccc(-c3ccc(N4CCCC4)nn3)c2)c1	1.9	.

The list goes on; the last two above are carried over.
SMILES	HIV TAR-Tat	CDC25B CDK2 inh
CCOC(=O)C1=C(C)NC2=C(C(=O)CC(c3ccccc3)C2)C1c1ccncc1 (stereo not drawn)	0.35	-0.84
COc1ccc(OC)c(S(=O)(=O)Nc2cccc(-c3ccc(N4CCCC4)nn3)c2)c1	1.9	.
N#Cc1nc(/C=C/c2ccccc2)oc1N1CCN(C(=O)c2cccs2)CC1	1.1	-1.6
CC1Cc2ccccc2N1C(=O)CCS(=O)(=O)c1ccc2c(c1)NC(=O)CS2 (stereo not drawn)	-9.9	.
Cc1ccc2c(c1)C(=O)C(=O)N2CCCOc1ccc(C(C)(C)C)cc1	0.41	0.81
CCn1cc(C(=O)NC2CCCCC2)c(=O)c2cc(S(=O)(=O)N3CCCC3)ccc21	.	-2.5
COc1ccc(S(=O)(=O)NCCc2cn3c(C)csc3n2)cc1C	-0.31	.
CCOCCc1nn2c(=O)cc(COC(=O)c3cccc(Cl)c3)nc2s1	-0.38	.

Arranged by molar mass (high to low): part of the list above
SMILES	HIV TAR-Tat	CDC25B CDK2 inh
CCCn1c(=O)sc2cc(S(=O)(=O)N3CCN(C(=O)c4sc(C)nc4C)CC3)ccc21	-0.94	.
COc1ccc(OC)c(S(=O)(=O)Nc2cccc(-c3ccc(N4CCCC4)nn3)c2)c1	1.9	.
CCn1cc(C(=O)NC2CCCCC2)c(=O)c2cc(S(=O)(=O)N3CCCC3)ccc21	.	-2.5
CC1Cc2ccccc2N1C(=O)CCS(=O)(=O)c1ccc2c(c1)NC(=O)CS2 (stereo not drawn)	-9.9	.
CCOCCc1nn2c(=O)cc(COC(=O)c3cccc(Cl)c3)nc2s1	-0.38	.
N#Cc1nc(/C=C/c2ccccc2)oc1N1CCN(C(=O)c2cccs2)CC1	1.1	-1.6
COc1ccc(S(=O)(=O)NCCc2cn3c(C)csc3n2)cc1C	-0.31	.
